Bioassay records deposited in PubChem by National Center for Advancing Translational Sciences (NCATS).
Tau fibril ThT: qHTS for Inhibitors of Tau Fibril Formation, Thioflavin T Binding | Microtubule-associated protein tau (Homo sapiens), P10636 | recombinant tau K18 P301L, heparin-induced fibrillization, ThT fluorescence | 270,000 compounds, 2.1% hits | Potency, µM (top dose mostly 57.4 µM), for the others: at the top dose activity, negative = inhibition, hits mostly inhibitors; further: on the % scale 0 is the no-effect control and ±100 the full control effect; nearly all actives have a fitted effect of over 55% in size
Target sequence (P10636 561-689 P618L limits assumed): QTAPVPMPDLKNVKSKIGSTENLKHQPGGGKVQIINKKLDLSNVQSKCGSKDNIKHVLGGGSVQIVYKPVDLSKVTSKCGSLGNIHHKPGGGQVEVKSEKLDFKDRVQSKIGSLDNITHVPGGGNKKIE
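ThT emission at 510 nm, taken 1 hr after adding 30 uM dye, quantifies aggregates formed when 20 uM heparin acts on human tau K18 P301L for 6 hr at 37 C.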
TR SRC2 fluor cs: Total Fluorescence Counterscreen for Inhibitors of the Interaction of Thyroid Hormone Receptor and Steroid Receptor Coregulator 2 | TRb/SRC2 Texas Red total fluorescence interference | Potency, µM (doses to about 106 µM), for inactives: top-dose fluorescence change, negative = quenching | 280,000 compounds, 0.29% hits | AID 1479, 2009; active means well fitted curve in either direction with a large enough effect; inconclusive means small, poorly fitted or top-dose-only effect; further: on the % scale 0 is the no-effect control and ±100 the full control effect
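Human TRb ligand-binding domain at 0.6 uM with 20 nM Texas Red SRC2 peptide in Tris buffer containing 1 uM T3 and 5% DMSO, incubated with compound 5 h at ambient temperature. Total fluorescence (555/632 nm) calculated as parallel + 2 × perpendicular.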
Tau FP inhib: qHTS for Inhibitors of Tau Fibril Formation, Fluorescence Polarization. K18 P301L tau heparin fibrillization, Alexa594 FP, 6 h. 280,000 compounds, 0.39% hits. AID 1468, 2008. Microtubule-associated protein tau (Homo sapiens), P10636. Potency, µM (highest dose often 57.7 µM), for the others: top-dose activity, negative = inhibition, actives largely listed as inhibitors; further: on the % scale 0 is the no-effect control and ±100 the full control effect; nearly all actives have a fitted effect of over 55% in size
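Steps: dispense K18 P301L tau (15 uM plus 0.24 uM Alexa 594 tracer, final) in pH 7 sodium acetate; add compound; add heparin (20 uM final); incubate 6 hr, 37 C; add ThT (30 uM final); after 1 hr ambient, read FP.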
RECQ1 helicase: qHTS Assay for Inhibitors of RecQ-Like Dna Helicase 1 (RECQ1); RECQ1 DNA unwinding, red fluorescence kinetic read; AID 2549, 2010; ATP-dependent DNA helicase Q1 (Homo sapiens), P46063; 240,000 compounds, 0.54% hits; Potency, µM (series often up to 57.3 µM), without a hit: top-dose activity, negative = inhibition, hits mostly inhibitors;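 further: plate controls were vehicle for no effect and no enzyme for full effect; nearly all actives have a fitted effect of over 30% in size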
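50 nM RECQ1T1 preincubated 15 min with compound in Tris pH 8.0 buffer with MgCl2, DTT, Tween-20 and 2.5 ug/ml poly(dI-dC); started with 200 nM TAMRA/BHQ-2 forked duplex and 2 mM ATP. Unwinding read as fluorescence (525/598 nm), two reads 2 h apart.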
TRb-SRC2 inh: qHTS for Inhibitors of the Interaction of Thyroid Hormone Receptor and Steroid Receptor Coregulator 2; Thyroid hormone receptor beta (Homo sapiens), P10828; TRbeta-SRC2 peptide binding, fluorescence polarization; receptor liganded with 1 µM T3; Potency, µM (doses to about 106 µM), inactives show at the top dose activity change, negative = inhibition, hits mostly inhibitors; 280,000 compounds, 0.065% hits;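 further: plate controls were bound peptide for no effect and peptide without receptor for full effect; nearly all actives have a fitted effect of over 50% in size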
Target sequence (P10828 whole entry, looked up): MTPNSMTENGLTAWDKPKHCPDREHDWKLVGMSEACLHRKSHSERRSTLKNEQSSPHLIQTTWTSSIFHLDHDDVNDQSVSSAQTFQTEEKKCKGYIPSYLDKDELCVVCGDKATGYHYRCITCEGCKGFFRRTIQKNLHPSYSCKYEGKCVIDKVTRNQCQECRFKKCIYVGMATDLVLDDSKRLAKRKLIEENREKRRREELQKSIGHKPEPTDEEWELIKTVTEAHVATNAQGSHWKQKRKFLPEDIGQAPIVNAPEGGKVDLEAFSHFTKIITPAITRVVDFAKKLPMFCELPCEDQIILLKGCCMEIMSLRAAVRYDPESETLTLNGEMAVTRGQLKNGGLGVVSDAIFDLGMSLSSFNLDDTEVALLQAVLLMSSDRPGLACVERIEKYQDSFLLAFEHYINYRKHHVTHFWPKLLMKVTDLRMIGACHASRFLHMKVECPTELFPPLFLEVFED
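Fluorescence polarization of 20 nM Texas Red SRC2 peptide with 0.6 uM human TRb ligand-binding domain, in Tris buffer with 1uM T3 and 5% DMSO. Incubated 5 hr ambient; normalized to unbound and bound controls.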
HTT ATP protect: qHTS Multiplex Assay to Identify Dual Action Probes in a Cell Model of Huntington: Cytoprotection (ATP); PC12 HTT-Q103 induced, cytoprotection, ATP luminescence, 40 h; Potency, µM (highest dose often 56.4 µM), without a hit: cytoprotection (ATP increase), actives largely listed as activators; 230,000 compounds, 0.14% hits; AID 1471, 2008;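 further: % of control where 0% means no effect; nearly all actives have a fitted effect of over 45% in size; toxic huntingtin expression switched on by the ecdysone agonist tebufenozide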
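Huntington model: PC12 line, ecdysone-inducible HTTQ103 exon1–GFP, tebufenozide 100 nM. Test articles in a dose series. Endpoint luminescence from cellular ATP.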
Tau fluor cs: Counterscreen qHTS for Inhibitors of Tau Fibril Formation, Fluorescence Polarization; tau K18 P301L Alexa594 fluorescence, heparin fibrillization; Potency, µM (doses to about 57.7 µM), for the others: top-dose activity change, negative = decrease; 280,000 compounds, 0.93% hits; further: on the % scale 0 is the no-effect control and ±100 the full control effect; nearly all actives have a fitted effect of over 55% in size
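Human tau K18 P301L (15 uM unlabeled, 0.24 uM Alexa 594-labeled) in 100 mM sodium acetate pH 7 with 20 uM heparin, 6 hr at 37 C. ThT 30 uM added, 1 hr ambient; Alexa 594 FP and total fluorescence read at 555/632 nm.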
* marks the source's active call; other numbers are inactive results; i = inactive; ? = inconclusive; . = no result given; & = joins results of further samples; [ ] = dose if it differs, or a comment. Unless noted, the call rests on the fitted dose curve; in most records, active means well fitted curve in the direction sought with a large enough effect; inconclusive means small, poorly fitted or top-dose-only effect, or another doubt; inactive means no such curve, though single readings can be large; an effect the other way counts as inactive or inconclusive. Potency means the concentration at half of the fitted maximal effect. A portion of the library; rates above refer to the full screens.

SMILES	Tau fibril ThT	TR SRC2 fluor cs	Tau FP inhib	RECQ1 helicase	TRb-SRC2 inh	HTT ATP protect	Tau fluor cs
O=C(CSc1nc(O)cc(=O)[nH]1)C1CC1	9%	-2%	-4%	-5%	6%	18%	2%
O=C(CSc1ncnc2c1cnn2-c1ccc(F)cc1)NCc1ccc2c(c1)OCO2	12%	0%[53 µM]	-4%	-16%	-8%[53 µM]	-6%[10 µM]	11%
CC(C)C[C@H](NC(=O)c1nc[nH]c1C(=O)N(C)Cc1ccccc1)C(=O)OC(C)(C)C	-10%	0%	-4%	-12%	-4%	-5%[10 µM]	-12%
CCOC(=O)c1c(-c2ccccc2)nnn1-c1nc(OC)nc(N2CCOCC2)n1	-10%	-1%	-3%	i	-14%	0%	-6%
CCCCS(=O)(=O)Nc1ccc2cn[nH]c2c1	9%	0%	2%	-3%	1%	.	6%
O=C(NC1(C(F)(F)F)C(=O)Nc2c1c(=O)[nH]c(=O)n2-c1ccc(F)cc1)c1cccnc1 (stereo not drawn)	-3%	-10%	1%	i	-6%	6%	-4%
COCCOc1cc(N)c(Cl)cc1Cl	-4%	0%	6%	-1%	7%	-3%	-5%
CC1=C(C(=O)OCC2CCCO2)C(c2ccc(C)cc2)C2=C(CCCC2=O)N1 (stereo not drawn)	1%	2%	7%	0%	-1%	-28%	1%
CCc1ccccc1NC(=O)Nc1cc(F)ccc1F	-5%	0%	?	i	11%	-35%[inhibitor]	-11%
CCC(c1ccccc1)c1nc(-c2ccccn2)no1 (stereo not drawn)	-10%	0%	1%	-7%	5%	-7%	-4%
COc1ccc(CC(=O)Nc2ccc(-c3noc(-c4cccc(OC)c4)n3)cc2)cc1	3%	1%	?	4%	2%	-36%	6%
CCc1nnc(SCC(=O)N2CCCc3ccccc32)nc1CC	-1%	4%	2%	-3%	2%	2%[10 µM]	2%
CC(=O)N1N=C(c2ccc(C)cc2)CC1c1ccc2c(c1)OCO2 (stereo not drawn)	-5%	0%	1%	-5%	3%	16%[10 µM]	-3%
Cc1cccc(NC(=O)C(=O)NCc2ccc3c(c2)OCO3)c1C	4%	-1%[53 µM]	-2%	-9%	6%[53 µM]	26%[10 µM]	12%
CC(C)C(C)(C#N)NC(=O)CSc1nnc(C(F)(F)F)n1C (stereo not drawn)	1%	-2%	8%	-6%	-4%	-2%	0%
COc1cccc(C2C(C(=O)Nc3cccnc3)=C(C)Nc3nnnn32)c1OC (stereo not drawn)	0%	1%	13%	1%	-18%	-2%	3%
O=C(NC1CCCCC1)C1CCN(c2nccs2)CC1	-7%	1%	2%	i	1%	-13%[10 µM]	4%
Cc1cc(NC(=O)CSc2ccc(Cl)cc2)no1	-1%	0%	-6%	-2%	3%	-9%[10 µM]	-5%
COCCn1c(-c2ccccc2)nc2c(c(=O)c3ccccc3n2C)c1=O	3%	-1%	3%	6%	7%	-3%[10 µM]	7%
Cn1c(SCc2c(Cl)cccc2Cl)nnc1-c1ccc2nonc2c1	-15%	4%	-3%	-7%	-4%	-21%[10 µM]	-20%
Cc1nc(SCC(=O)NCCc2ccccc2)c2oc3ccccc3c2n1	-5%	2%	-5%	4%	8%	-19%	-1%
Oc1ccc2cccnc2c1	12%	3%	-2%	-2%	7%	6%[0.074 µM]	7%
COc1ccc(-c2nnc(SC)o2)c(OC)c1	-4%	1%	-8%	i	-1%	-6%	-3%
CNC(=O)/C(C#N)=C/c1ccc(-c2ccc(Cl)cc2)o1	?	-3%	6%	i	0%	36%[10 µM]	4%
O=C(/C=C/c1ccc(S(=O)(=O)NCc2ccco2)cc1)NCc1ccccc1Cl	-10%	5%	4%	-9%	-2%	2%[10 µM]	-24%
COc1ccc(C2=NOC3(CC(=O)N(c4ccc5ccccc5c4)C3=O)C2)c(OC)c1 (stereo not drawn)	-22%	4%	2%	-21%	10%	-15%	-12%
O=C(Cc1csc(NC(=O)c2ccccc2)n1)NO	-5%	0%	3%	i	-2%	0%	1%
COc1ccc(C(=O)NNC(=O)CSc2nnc(C)n2C)cc1	5%	-4%	9%	6%	-3%	.	11%
Cc1cccn2c(=O)c3cc(S(=O)(=O)c4ccc(F)cc4)c(=N)n(Cc4ccco4)c3nc12	-20%	-1%	-2%	107%[activator]	6%	23%[10 µM]	-20%
COc1ccccc1NC(=O)C(=O)N(c1cccnc1)C(C(=O)NC(C)(C)C)c1ccccc1 (stereo not drawn)	-4%	0%	-3%	i	1%	20%[10 µM]	-2%
O=C(CN1CCC(NC(=O)c2cccc(F)c2)CC1)NCc1cccs1	0%	2%[53 µM]	5%	-9%	-7%[53 µM]	6%[10 µM]	-1%
CCOC(=O)c1cc(C#N)c(N2CCCC2)nc1-c1ccccc1	-19%	3%	1%	-15%	0%	-8%	-15%
O=C(/C=C/c1ccccc1)NC(=S)Nc1ccc2c3c(cccc13)CC2	-15%	-2%	-5%	-3%	4%	.	-9%
COc1ccccc1CNc1nc2nc3c(c(=O)n2[nH]1)CCC3	8%	-2%	3%	-1%	4%	-2%[0.074 µM]	10%
CCOC(=O)c1cc(C#N)c(N2CCNCC2)nc1C(F)(F)F	-9%	-4%	3%	-2%	-1%	29%[10 µM]	-8%
OC[C@@H](O)C(O[C@@H]1O[C@@H](CO)[C@H](O)[C@H](O)[C@H]1O)[C@H](O)[C@@H](O)CO (stereo partly drawn)	.	-2%	.	.	6%	13%	.
COCCn1c(C)nc2oc3ccc(Br)cc3c(=O)c2c1=O	-9%	0%	-2%	-14%	4%	-30%	-8%
O=C(CC1C(=O)NCCN1Cc1c(F)cccc1Cl)NCCC1=CCCCC1 (stereo not drawn)	-3%	-1%	8%	-11%	-1%	35%[10 µM]	-1%
CC(=O)CSc1nnc(C(F)(F)F)n1C	-1%	-1%	3%	11%	2%	-1%[10 µM]	2%
COc1ccc(OC)c(-c2cc(C(F)(F)F)c3c(n2)sc2c(O)cc(=O)[nH]c23)c1	?	2%	1%	-13%	-4%	24%[10 µM]	-9%

Looked up one by one from above, two records:
SMILES	Tau fibril ThT	TR SRC2 fluor cs	Tau FP inhib	RECQ1 helicase	TRb-SRC2 inh	HTT ATP protect	Tau fluor cs
Cc1cccn2c(=O)c3cc(S(=O)(=O)c4ccc(F)cc4)c(=N)n(Cc4ccco4)c3nc12	-20%	-1%	-2%	107%[activator]	6%	23%[10 µM]	-20%
COc1ccc(C(=O)NNC(=O)CSc2nnc(C)n2C)cc1	5%	-4%	9%	6%	-3%	.	11%

3 entries from above, sorted by number of heavy atoms, smallest number first.
SMILES	Tau fibril ThT	TR SRC2 fluor cs	Tau FP inhib	RECQ1 helicase	TRb-SRC2 inh	HTT ATP protect	Tau fluor cs
Oc1ccc2cccnc2c1	12%	3%	-2%	-2%	7%	6%[0.074 µM]	7%
COCCn1c(C)nc2oc3ccc(Br)cc3c(=O)c2c1=O	-9%	0%	-2%	-14%	4%	-30%	-8%
COc1ccccc1NC(=O)C(=O)N(c1cccnc1)C(C(=O)NC(C)(C)C)c1ccccc1 (stereo not drawn)	-4%	0%	-3%	i	1%	20%[10 µM]	-2%

Of the compounds above, four have a furan ring, fused or not:
SMILES	Tau fibril ThT	TR SRC2 fluor cs	Tau FP inhib	RECQ1 helicase	TRb-SRC2 inh	HTT ATP protect	Tau fluor cs
Cc1nc(SCC(=O)NCCc2ccccc2)c2oc3ccccc3c2n1	-5%	2%	-5%	4%	8%	-19%	-1%
CNC(=O)/C(C#N)=C/c1ccc(-c2ccc(Cl)cc2)o1	?	-3%	6%	i	0%	36%[10 µM]	4%
O=C(/C=C/c1ccc(S(=O)(=O)NCc2ccco2)cc1)NCc1ccccc1Cl	-10%	5%	4%	-9%	-2%	2%[10 µM]	-24%
Cc1cccn2c(=O)c3cc(S(=O)(=O)c4ccc(F)cc4)c(=N)n(Cc4ccco4)c3nc12	-20%	-1%	-2%	107%[activator]	6%	23%[10 µM]	-20%

(list continues)
SMILES	Tau fibril ThT	TR SRC2 fluor cs	Tau FP inhib	RECQ1 helicase	TRb-SRC2 inh	HTT ATP protect	Tau fluor cs
CC(C)c1nc(N2CCN(C(=O)c3ccco3)CC2)c2c3c(sc2n1)CCCC3	?	0%	?	33%[activator]	-9%	-14%[10 µM]	-9%
CCOC(=O)c1cc(C#N)c(Oc2ccccc2)nc1-c1ccccc1	-19%	2%	8%	-19%	7%	-17%[10 µM]	-27%
COc1cccc(OCC(=O)NNC(=O)c2cccs2)c1	-5%	-4%	2%	-2%	-5%	-21%	-1%
CCC(=O)NC(=S)Nc1cccc(NC(=O)c2ccc(Cl)cc2Cl)c1	-13%	1%	-15%	13%	5%	-26%	-18%
Cc1ccc(NC(=O)N2C(=O)C3(OCCO3)c3ccccc32)cc1	4%	0%	0%	i	-1%	-11%[10 µM]	-8%
Cn1c(=O)c(C(=O)COC(=O)c2cc(C3CC3)nc3ccccc23)c(N)n(Cc2ccccc2)c1=O	-12%&-12%	2%&0%	-17%&2%	-18%	8%&7%	29%	?
COc1ccccc1C(CC(=O)Nc1ccc(Cl)cc1)c1ccc(OC(C)C)cc1 (stereo not drawn)	11%	-2%	0%	-4%	-13%	3%[10 µM]	8%
N#Cc1c(SCC(=O)O)nc(N2CCOCC2)c2c1CCCC2	-3%	-2%	-1%	0%	-4%	2%[10 µM]	-2%
